# Cruzain inh noDet: qHTS Assay for Promiscuous and Specific Inhibitors of Cruzain (without detergent); Potency, µM, for the others: max response, negative = inhibition, actives largely listed as inhibitors; purified cruzain, Z-FR-AMC fluorescence, no detergent; AID 1476, 2009; actives 2.3% (n = 200,000);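 also: plate controls were enzyme without inhibitor for no effect and buffer without enzyme for full effect; nearly all actives have a fitted effect of over 40% in size; top concentration of the series not given in the record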
# Target sequence (P25779 123-467 limits assumed): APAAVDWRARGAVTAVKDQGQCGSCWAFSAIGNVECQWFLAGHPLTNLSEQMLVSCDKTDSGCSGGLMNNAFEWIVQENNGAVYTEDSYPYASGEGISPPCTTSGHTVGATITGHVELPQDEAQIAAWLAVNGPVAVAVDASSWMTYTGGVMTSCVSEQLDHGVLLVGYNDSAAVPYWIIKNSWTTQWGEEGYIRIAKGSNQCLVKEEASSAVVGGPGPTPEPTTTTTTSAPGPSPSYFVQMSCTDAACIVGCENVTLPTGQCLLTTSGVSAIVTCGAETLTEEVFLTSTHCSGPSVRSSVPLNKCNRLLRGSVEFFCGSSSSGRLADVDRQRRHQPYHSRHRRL
#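 Detergent-free condition (0.00005% Triton X-100) in acetate buffer pH 5.5 with DTT. 1.5 nM enzyme and compound were pre-mixed 15 min, then 2 uM Z-FR-AMC substrate added; reaction progress from fluorescence change between first and third reads (60 s).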
# MARV entry inh: qHTS for inhibitors of binding or entry into cells for Marburg Virus; Marburg virus pseudotyped entry inhibition, cell reporter; control for the full effect not named in the record; about a third of the inactives were read at about 46 µM; Potency, µM (series often up to 37.8 µM), without a hit: at the top dose activity change, negative = inhibition, actives largely listed as inhibitors; actives 1.8% (n = 300,000); active = well fitted inhibition curve with a large enough effect; inconclusive = small, poorly fitted or top-dose-only effect, or effect the other way; inactive = flat fitted curve, though single readings scatter; tested in HEK293 cells; about a fifth of its hits are not listed in these tables; also: % is scaled to controls: 0 for no effect and ±100 for the full control effect; luciferase read-out
# Cruzain inh Det: qHTS Assay for Promiscuous and Specific Inhibitors of Cruzain (with detergent); Cruzipain (Trypanosoma cruzi), P25779; purified cruzain, Z-FR-AMC fluorescence, 0.01% Triton; Potency, µM, for the others: max response, negative = inhibition, hits mostly inhibitors; actives 0.43% (n = 200,000);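 also: plate controls were neutral wells for no effect and buffer without enzyme for full effect; nearly all actives have a fitted effect of over 40% in size; top concentration of the series not given in the record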
#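 Sodium acetate buffer (100 mM, pH 5.5) containing 5 mM DTT and 0.01% Triton X-100 hosted 1.5 nM cruzain and test compound for 15 min at room temperature. Cleavage of 2 uM Z-FR-AMC was then tracked by fluorescence.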
# SARS PLpro yeast: qHTS of Yeast-based Assay for SARS-CoV PLP. S. cerevisiae expressing SARS-CoV PLpro, growth rescue; control for the full effect not named in the record. Potency, µM (titrated, usually from 32.9 µM), without a hit: top-dose activity, positive = growth rescue. actives 0.19% (n = 330,000). AID 485353, 2010; active means well fitted rising curve with a large enough effect; inconclusive means small, poorly fitted or top-dose-only effect; inactive means no such curve, though single readings can be large or run the other way; also: 0% is about no effect; nearly all actives have a fitted effect of over 55% in size; growth read by luminescence after 48 h
# StopGo reporter: High Throughput Screening for Foot and Mouth Disease Virus Antivirals; human cells with a luciferase reporter of 2A StopGo recoding; control for the full effect not named in the record; Potency, µM (titrated, usually from 57.9 µM), for the others: top-dose signal change, negative = less light; actives 1.2% (n = 410,000); AID 1159524, 2015; active = well fitted falling curve with a large enough effect; inconclusive = small, poorly fitted or top-dose-only effect; inactive = no such curve, though single readings can be large or run the other way; tested in HEK293T cells; also: % is scaled to controls: 0 for no effect and ±100 for the full control effect; nearly all actives have a fitted effect of over 45% in size; luciferase light after 4 h
# RE007 growth inh: qHTS Assay for Inhibitors of the HIV-1 protein Vpr; S. pombe RE007 Vpr strain, BacTiter-Glo ATP luminescence, 24 h; control for the full effect not named in the record; Potency, µM (doses to about 92.2 µM), inactives show top-dose activity change, negative = less growth; actives 0.21% (n = 360,000); AID 651644, 2012; active = well fitted falling curve with a large enough effect; inconclusive = small, poorly fitted or top-dose-only effect; inactive = no such curve, though single readings can be large or run the other way;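 also: % is scaled to controls: 0 for no effect and ±100 for the full control effect; nearly all actives have a fitted effect of over 50% in size; the assay follows cell death caused by Vpr and the record does not say whether a fall means rescue or toxicity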
#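 Fission yeast strain RE007, carrying one chromosomally integrated HIV-1 vpr copy, was seeded at OD 0.01 in PMG+AL medium with 23 nL pinned compound. After 24 h at 30 °C and 99% humidity, viability was read by BacTiter-Glo luminescence.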
# NS1 inh: qHTS Assay for Inhibitors of Influenza NS1 Protein Function | Potency, µM (highest dose often 46.1 µM), for the others: at the top dose activity, positive = more growth | actives 0.4% (n = 270,000) | AID 2326, 2010 | S. cerevisiae slowed by influenza A NS1, growth recovery by OD600; active means well fitted rising curve with a large enough effect; inconclusive means small, poorly fitted or top-dose-only effect; inactive means no such curve, though single readings can be large or run the other way; also: nearly all actives have a fitted effect of over 50% in size
#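 Read-out: OD600 growth recovery of NS1-expressing budding yeast. Cells grown overnight at 30C in -URA glucose medium, washed, resuspended and diluted 1:100 in 2% galactose assay medium, pH 6.0. Same strain lacking NS1 served as positive control.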
# Lassa entry inh: qHTS for Inhibitors of binding or entry into cells for Lassa Virus; Lassa virus pseudotype entry inhibition, cell reporter; control for the full effect not named in the record; Potency, µM (highest dose often 37.9 µM), inactives show top-dose activity change, negative = inhibition, actives largely listed as inhibitors; actives 1.2% (n = 300,000); AID 540256, 2011; active means well fitted inhibition curve with a large enough effect; inconclusive means small, poorly fitted or top-dose-only effect, or effect the other way; inactive means flat fitted curve, though single readings scatter; tested in HEK293 cells; also: % is scaled to controls: 0 for no effect and ±100 for the full control effect; nearly all actives have a fitted effect of over 50% in size; luciferase read-out
# Active calls of the source: *; u = inconclusive; x = no result given; & = joins results of further samples; [ ] = remark or other dose. Unless noted, calls follow the shape of the dose curve; as a rule, active = well fitted curve in the direction sought with a large enough effect; inconclusive = small, poorly fitted or top-dose-only effect, or another doubt; inactive = no such curve, though single readings can be large; an effect the other way counts as inactive or inconclusive. Potency is read from the fitted curve at half-maximal effect. Compounds as they come; overall some 4.7% were active at least once.
SMILES,Cruzain inh noDet,MARV entry inh,Cruzain inh Det,SARS PLpro yeast,StopGo reporter,RE007 growth inh,NS1 inh,Lassa entry inh
CC1SC(=NC(=O)C(C)N2C(=O)c3ccccc3C2=O)NC1=O (centres undefined),-17%,25%,-7.7%,16%,-17%,11%,20%,-17%
COc1cc(S(=O)(=O)N2CCOCC2)ccc1NC(=O)COC(=O)c1ccccn1,0%,9%&9%,-3.4%,4%,-19%,25%,-5%,12%
Cc1ccc(N(CC(=O)NCC2CCCO2)C(=O)CCC(=O)Nc2nccs2)cc1 (centres undefined),x,0%[46.1 µM],x,1%,-12%,4%,1%,20%
CCOCCc1nn2c(=O)cc(COC(=O)c3ccccc3NC(=O)CC(C)C)nc2s1,u,x,-3.7%,x,-23%,x,x,-2%[46.1 µM]
CC(C)c1nnc(NC(=O)COC(=O)/C=C/c2ccc([N+](=O)[O-])cc2)s1,x,x,x,2%,-21%,-9%,14%,x
COc1ccc(CN(C)CC(=O)NC(=O)NCc2ccccc2)cc1OC,-7%,-1%,0.3%,8%,-7%,10%,8%,-20%
CCc1ccc[n+](-c2nc([O-])sc2C=O)c1,x,4%,x,-1%,1%,14%,6%,11%
O=C(O)Cc1ccc(NC(=O)Nc2cccc3ccccc23)cc1,x,u,x,15%,-10%,4%,-9%,u
CCn1c(SCC(=O)C(C)(C)C)nnc1-c1ccccc1OC,-8%,-10%,2.4%,1%,-4%,3%,6%,1%
Cc1ccc2c(c1)=C(c1sc(N(C)c3ccc(O)cc3)nc1O)C(=O)N=2,x,x,x,-1%,-25%,17%,0%,x
CCOC(=O)c1oc2ccccc2c1NC(=O)CCl,x,1%,x,-1%,u,-11%,-8%,x
CCOCCCN1C(=O)C(O)=C(C(C)=O)C1c1cccs1 (centres undefined),x,1%,x,x,1%,10%,x,-4%
COc1cccc(/C=N/Nc2ncnc(Cl)c2N)c1O,11%,2.5µM*,-1.4%,4.5µM*,-10%,13%,-28%,3.7µM*
CCOc1cc(N2CCOCC2)c(OCC)cc1NC(=O)c1ccc(C)cc1,x,-25%[46.1 µM],x,2%,-15%,0%,x,x
Cn1cccc1/C=C1/SC(=O)N(CC(=O)N2CCCC2)C1=O,x,-4%[46.1 µM],x,-1%,-6%,-17%,x,x
O=C1CC(c2ccccc2)CC(O)=C1C=NCc1ccc(Cl)c(Cl)c1 (centres undefined),1%,11%,-3.5%,-21%,-27%,-16%,8%,-11%
Cc1ccccc1S(=O)(=O)Cc1ccc(C(=O)NCc2ccccc2Cl)o1,-8%,7%[46.1 µM],-0.5%,x,-16%,x,x,-22%[46.1 µM]
CCC1(C)Cc2nc3sc(C(=O)O)c(N)c3cc2CO1 (centres undefined),3%,28%,-4.7%,4%,-3%,-6%,u,11%
Cc1ccc(Cn2ccc(NC(=O)c3cc(C4CC4)on3)n2)cc1,x,x,x,-4%,-11%,-13%,-44%,x
Cc1c(CCCl)c(Cl)n2c(nc3ccccc32)c1C#N,x,5µM*,x,x,3.5µM*,-22%,x,11µM*
Cc1c(C(=O)OCC(=O)N(C)C2CCS(=O)(=O)C2)oc2ccc(Br)cc12 (centres undefined),x,x,x,0%,-11%,7%,6%,x
COC(=O)c1c(-c2cccc(C)c2)csc1N,-7%,6%,-3.0%,-7%,u,18%,-52%,-24%
O=C(c1ccc2c(c1)N(Cc1ccc(Cl)cc1)C(=O)c1ccccc1S2=O)N1CCCCC1 (centres undefined),-9%,-2%[46.1 µM],1.4%,x,-24%,x,x,6%[46.1 µM]
CC(=O)Nc1cccc(-c2nnc(SCC(=O)n3c4c(c5ccccc53)CCCC4)n2C)c1,u,u,-8.3%,6%,-17%,10%,4%,-11%
CC(Sc1nnc(-c2ccncc2)n1C)C(=O)NCC1CCCO1 (centres undefined),x,-10%[46.1 µM],x,-3%,-20%,-8%,x,-2%
CCOC(=O)N1CCN(c2cc(=O)n(-c3ccccc3Cl)c(=O)[nH]2)CC1,-3%,x,4.4%,2%,u,1%,u,x
O=C(NCc1ccccn1)c1ccc(Br)s1,-5%,1%,-5.1%,-1%,43%[activator],-2%,-3%,29%
COc1ccc(F)cc1C(=O)C1CCCN(C(=O)c2ccc(C(C)=O)s2)C1 (centres undefined),x,x,x,6%,3%,-1%,-9%,x
O=C1/C(=C/c2ccccc2)CCC1C1CCCC1 (centres undefined),0%,u,-6.6%,4%,22%,-6%,1%,u
C(=NOCCc1ccccc1)c1ccccn1,x,u,x,x,26%,6%,x,12%[46.1 µM]
Cc1ccc(N(C)S(=O)(=O)c2nnc(NC(=O)CC(C)C)s2)cc1,-1%,x,-0.9%,x,1%,x,x,6%[46.1 µM]
O=C(CSc1nc(N2CCOCC2)nc(N2CCOCC2)n1)Nc1ccccc1F,x,-3%,x,0%,-6%,-5%,10%,u
CC1CN(Cc2nc3c(c(=O)n(C)c(=O)n3C)n2Cc2ccccc2)CC(C)O1 (centres undefined),9%,x,2.0%,-3%,-20%,6%,-5%,x
CCc1ccc(NC(=O)CSc2nc(=O)n(CCCN3CCOCC3)c3c2CCC3)cc1,x,-18%,x,-2%,-4%,1%,x,-12%
CCOc1ccc2nc(NC(=O)c3ccccn3)sc2c1,x,u,x,-1%,-84%,14µM*,-48%,u
Cc1ncc([N+](=O)[O-])n1CCOC(=O)C12CC3CC(CC(C3)C1)C2,x,-27%[46.1 µM],x,0%,-8%,-10%,4%,12%
O=C(c1ccco1)N1CCCC(Nc2ccc3c(c2)OCCO3)C1 (centres undefined),x,5%[46.1 µM],x,-3%,43%[activator],-15%,-3%,0%[46.1 µM]
O=C(CCN1CCN(c2ccccc2F)CC1)Nc1cccc(F)c1,x,x,x,-1%,8%,-3%,0%,x
Cc1c2cnn(CC(=O)NCc3ccccc3)c(=O)c2c(C)n1Cc1cccc(Cl)c1,4%,u,0.0%,x,u,x,x,-1%[46.1 µM]
CCOc1ccc(S(=O)(=O)n2cc(-c3ccc(F)cc3)c(N)n2)cc1,-3%,3%,-11%,-20%,-5%,-2%,1%,-22%
Nn1c(SCC(=O)Nc2nccs2)nnc1C1CC1,x,x,x,-3%,-17%,-8%,9%,x
O=C(OC(C(=O)NCC1CCCO1)c1ccccn1)c1cccs1 (centres undefined),-3%,7%,2.5%,-1%,x,13%,-2%,7%
CCOc1ccc(CN2CCN(Cc3cnc(-c4ccccc4)s3)CC2CCO)cc1 (centres undefined),x,x,x,0%,4%,0%,3%,x
Clc1ccc(CSc2nncn2-c2ccccn2)cc1,-6%,-8%,-1.5%,-4%,18%,-11%,-11%,1%
Cc1ccccc1NC(=S)NCCc1ccccn1,-5%,27%,1.3%,2%,63%[activator],-3%,11%,17%
Cc1cccc(C)c1OCCSc1n[nH]c(N)n1,5%,10%,-0.2%,0%,-11%,-1%,1%,-3%
CCCC1c2ccc(C)n2CCN1C(=O)Nc1ccc(F)cc1 (centres undefined),-6%,-2%,0.5%,-7%,-5%,0%,-1%,9%
COC(=O)CCN(C(=O)c1ccc(OC(C)=O)cc1)c1ccccn1,4%,-14%,3.7%,-4%,4%,9%,4%,0%
CCn1c(CC(=O)Nc2cccc(OC)c2)nnc1SCC(=O)N1CCN(c2ccccc2)CC1,u,u,-5.2%,-4%,u,7%,-13%[9.22 µM],5%
CC1CCN(C(=O)COc2cccc3c2CCN(Cc2ccccc2)C3=O)CC1,x,u,x,-4%,-18%,11%,x,u

# Next part:
SMILES,Cruzain inh noDet,MARV entry inh,Cruzain inh Det,SARS PLpro yeast,StopGo reporter,RE007 growth inh,NS1 inh,Lassa entry inh
CC(C)(C)c1ccc(CSc2nc(N)cc(=O)[nH]2)cc1,x,u,x,0%,-6%,41%,-5%,-18%
CCOc1ccc2nc(NC(=O)c3ccc(C)o3)sc2c1,x,u,x,x,-44%,u,x,8.9µM*
CC(C)OC(=O)CSc1nc(Cc2cccs2)nc2ccccc12,x,x,x,-1%,-18%,-16%,2%,x
CCOc1ccc(NC(=O)c2ccc(NC(=O)CSc3nc4ccccc4c(=O)[nH]3)cc2)cc1,x,-2%,x,2%,-10%,17%,x,6%
CC(C)CCN1C(=O)c2cccc3c(N)ccc(c23)C1=O,x,u,x,x,61%[activator],-1%,x,16%
Cc1ccc(-c2nnc(OCc3nc4ccccc4n3C)c3ccccc23)cc1,x,4%[46.1 µM],x,x,-17%,5%,x,11%
CC1CC(C)(C)Nc2ccc(OC(=O)c3ccco3)cc21 (centres undefined),-3%,u,1.3%,-18%,u,-18%,-43%,u
Cc1cccc(-n2c(O)c(/C=C3/C(c4ccccc4)=Nc4ccccc43)c(=O)[nH]c2=O)c1,x,x,x,-4%,u,u,-99%,x
CC1(C(=O)Nc2nnc(C(C)(C)C)s2)Cc2ccccc2C(=O)O1 (centres undefined),-7%,8%,-1.9%,6%,8%,7%,24%,-1%
Cc1oc(S(=O)(=O)N2CCCCC2)cc1NC(=O)Nc1ccccc1,x,-14%,x,0%,6%,-11%,3%,-10%
O=C(N/N=C/c1ccc(-c2cccc([N+](=O)[O-])c2)o1)[C@H]1C[C@@H]1c1ccccc1,u,4%,-11%,-9%,-22%,-6%,19%,4µM*
COc1ccc(OC)c(NC(=O)Cc2c(C(=O)O)n(C)c3ccc(C)cc23)c1,u,2%[46.1 µM],-12%,x,10%,x,x,u
CSCCC(NC(=O)c1ccccc1Br)C(=O)NCCCn1nc(C)cc1C (centres undefined),x,2%[46.1 µM],x,5%,-6%,-1%,x,11%

# Screens (PubChem BioAssay)
